CBX7 AlphaScr – blocks human CBX7 binding to H3K27me3 peptide; O95931; AlphaScreen His6-CBX7 / biotin-H3K27me3 peptide binding; active compounds read low; normalised signal (fraction of DMSO) (concentration not given with the values); 66,000 tested, 1.1% active; AID 1224903; in the data active = normalised signal below about 0.5;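 note: 100 nL library stock added to about 20 µL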
Target sequence (O95931 whole entry, looked up): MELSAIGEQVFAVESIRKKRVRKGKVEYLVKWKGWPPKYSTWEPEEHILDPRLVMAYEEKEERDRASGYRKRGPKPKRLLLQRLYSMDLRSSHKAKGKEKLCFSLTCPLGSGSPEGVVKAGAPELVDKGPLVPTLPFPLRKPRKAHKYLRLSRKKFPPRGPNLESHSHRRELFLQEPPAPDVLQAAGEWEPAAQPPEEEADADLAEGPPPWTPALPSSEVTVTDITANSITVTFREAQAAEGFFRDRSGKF
CBX7 AlphaScr z-score – recorded beside CBX7 AlphaScr, whose call it bears; z-score; measured here: z-score of CBX7 signal; some inactives read as strong as hits; reference of the scale not given here;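 same signal on another scale; lower means less binding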
* = called active by the depositor; & = joins results of further samples. A portion of the library. The share of hits here may be higher or lower than overall.

SMILES | CBX7 AlphaScr | CBX7 AlphaScr z-score
CCCSCCCNC(=O)c1ccc2c(c1)NC(=O)c1ccccc1S2 | 0.83 | -2.1
CCOC(=O)c1cnc2c(C)cc(Cl)cc2c1Nc1ccc(OC)c(OC)c1 | 1 | 0.076
CCCc1ccc(-c2ccc(C(=O)N3CCOCC3)cc2)nc1 | 1 | 0.13
CCN(C(=O)Cn1nc(Cc2ccncc2)c2ccccc2c1=O)c1ccc(F)cc1 | 0.99 | -0.14
Cc1cc(Br)c(NS(=O)(=O)c2ccc3[nH]c(=O)[nH]c3c2)cc1C | 0.81 | -2.3
CCOc1ccccc1NC(=O)C1CCN(S(=O)(=O)c2cccc3nsnc23)CC1 | 1.1 | 1.6
Cc1cc(Nc2cccc(C(=O)O)c2)c2cccc(C)c2n1 | 0.94 | -0.066
Cc1ccc(OCC(O)CN2CCCC(C)C2)c(C)c1 (configuration not stated) | 1 | -0.068
Cc1[nH]c2ccccc2c1CCNS(=O)(=O)c1ccc(C(C)C)cc1 | 0.83 | -2.6
COc1ccc(C2=NOC(C(=O)Nc3ccc(OC(F)(F)F)cc3)C2)cc1OC (configuration not stated) | 1 | -0.053
CCOc1ccc2nc(N3CCCC(C(=O)NC(C)c4ccccc4)C3)sc2c1 (configuration not stated) | 1 | 0.044
CCOc1ccc(CCNC(=O)C2CCCN(c3nnc(-n4cccc4)s3)C2)cc1 (configuration not stated) | 0.96 | -0.94
COc1ccc(C(=O)NCc2nnc(SCC(=O)N3CCc4ccccc43)o2)cc1OC | 1 | 0.13
COc1ccc(N2CCN(C(=O)c3c(C)noc3C)CC2)cc1 | 1 | 0.35
CCOC(=O)c1cnc2c(C(F)(F)F)cccc2c1N1CC2(C)CC1CC(C)(C)C2 (configuration not stated) | 0.95 | -1.6
CCN(CC)C(=O)c1c[nH]c2ccc(S(=O)(=O)Nc3cccc(Cl)c3C)cc2c1=O | 0.87 | -2.3
O=C(NCCc1ccccc1Cl)C1CCN(S(=O)(=O)c2cccs2)CC1 | 0.98 | -0.3
Cc1oc(-c2ccccc2F)nc1CS(=O)(=O)CC(=O)N1CCc2ccccc21 | 0.99 | -0.15
CC(C)c1ccc(NS(=O)(=O)c2ccc3[nH]cc(C(=O)NCCc4ccccc4)c(=O)c3c2)cc1 | 1 | 0.25
Cc1ccc2c(c1)c1c(n2CC(O)Cn2nc(C)cc2C)CCCC1 (configuration not stated) | 0.81 | -6.2

Entries of single compounds from above. Values in the order: CBX7 AlphaScr, CBX7 AlphaScr z-score
Cc1cc(Nc2cccc(C(=O)O)c2)c2cccc(C)c2n1 is entered as 0.94, -0.066
CCOC(=O)c1cnc2c(C(F)(F)F)cccc2c1N1CC2(C)CC1CC(C)(C)C2 (configuration not stated) is entered as 0.95, -1.6

Other compounds.
SMILES | CBX7 AlphaScr | CBX7 AlphaScr z-score
COc1ccc(Cn2c(=O)[nH]c3cc(C(=O)N4CCN(c5ccccn5)CC4)ccc3c2=O)cc1 | 0.94 | -1.4
O=C(Cn1ncc2c1-c1ccccc1OC2)NC1CCCc2ccccc21 (configuration not stated) | 0.91 | -2.6
O=S1(=O)N=C(Nc2cccc(C(F)(F)F)c2)c2ccccc21 | 1 | -0.1
CCOC(CNC(=O)C1CCN(C(=O)c2cc3sccc3n2C)CC1)OCC | 0.89 | -1.4
CC1CCN(C(=O)CSc2ccc3nnc(-c4ccccc4)n3n2)CC1 | 1 | 1.3
COc1ccc(N2Cc3cccc(C(=O)NC4CCCC4)c3C2=O)cc1 | 1.1 | 0.95
Cc1ccc(Cl)cc1N1CCN(C(=O)Cc2cn(C)c3ccccc23)CC1 | 0.79 | -7.3
O=C(CN1C(=O)CCSc2ccccc21)NCCCN1CCCC1=O | 0.98 | -0.71
COc1ccc(C)cc1NC(=O)Cn1c(C)cc2ccccc2c1=O | 0.9 | -2.5
CCCNC(=O)Cn1cnc2sc(C(=O)N3CCC(C)CC3)c(C)c2c1=O | 1 | 0.019
C1=CC2=C(CO1)OCc1c2[nH]c2ccc3ccccc3c12 | 0.43* | -11*
Cc1ccccc1OCC(=O)Nc1c(C(=O)c2ccc(Cl)cc2)oc2ccccc12 | 1 | 0.22
N#CCCN(C(=O)Cn1ncc2c1-c1ccccc1OC2)c1ccccc1 | 1.1 | 0.47
O=C(CSCc1cnn(-c2ccccc2)c1-n1cccc1)NCc1cccnc1 | 1 | 2.1
Cc1oc(-c2cccc(Cl)c2)nc1CN1CCCC(C(=O)NC2CCCCC2C)C1 (configuration not stated) | 1 | 0.51
O=C(COc1ccc2oc3c(c2c1)CCCC3)Nc1cccc2cccnc12 | 0.94 | -0.69
CC1CCN(S(=O)(=O)c2ccc3c(c2)N(CC(=O)NCCN(C)C)C(=O)CO3)CC1 | 1 | 0.51
CCc1ccccc1NC(=O)Cn1c(SCc2ccccc2F)nc2ccncc21 | 1 | 1.2
CCOc1ccc(NC(=O)CSc2nnc(Cc3cc(=O)[nH]c(=O)[nH]3)n2-c2ccc(F)cc2)cc1 | 1.1 | 1.8
Cc1nc2nc[nH]n2c(=O)c1NS(=O)(=O)c1ccccc1 | 1.2 | 2.1
COCCNC(=O)c1c[nH]c2ccc(S(=O)(=O)Nc3cccc(Cl)c3C)cc2c1=O | 0.96 | -0.43
COc1ccc(C)cc1NC(=O)c1cnc2sccn2c1=O | 0.87 | -1.5
COc1cc(NC(=O)c2cc(C)no2)c(OC)cc1Cl | 0.92 | -1.1
CCC(=O)Oc1ccc2c(=O)c(-c3ccccc3OC)coc2c1 | 1 | 0.31
CCOC(=O)c1cc(-c2nnc(-c3ccccc3Cl)o2)c(C)nc1C | 0.94 | -0.66
CC(=O)Nc1ccc(NC(=O)NC2(c3ccccc3)CC2)cc1 | 0.99 | -0.038
CCCCCC(=O)Nc1ncc2c(n1)CC(C)(C)CC2=O | 1.1 | 0.74
CCOc1ccc(CCNC(=O)Cn2ncc3c2-c2cc(C)ccc2OC3)cc1OCC | 0.99 | -0.28
Cc1ccc(OCC(=O)Nc2ccc(-c3nc4ncccc4o3)cc2)c(C)c1 | 1 | 0.82
COc1cccc(-c2nnc(SCC(=O)Nc3nc(-c4ccccc4)cs3)o2)c1 | 1.1 | 2.4
CCCSCCCNC(=O)CN1C(=O)COc2ccc(S(=O)(=O)N3CCC(C)CC3)cc21 | 1 | 1
COc1ccc(C(=O)NCCc2nc3ccccc3[nH]2)cc1 | 1.1 | 0.46
CCCCCCCCNC(=O)c1ccc2c(c1)NC(=O)c1ccccc1S2 | 0.86 | -1.3
COc1ccc(N2CCN(CCCNC(=O)c3ccc4c(c3)NC(=O)c3ccccc3N4)CC2)cc1 | 1 | 0.23
Cc1ccc(-c2nc(CSCC(=O)NC3CCN(Cc4ccccc4)CC3)c(C)o2)cc1 | 0.87 | -0.85
COc1ccc(-c2nc(C(=O)NCCc3ccc(Cl)cc3)c(C)o2)cc1 | 1 | 0.57
CCOC(=O)N1CCN(C(=O)CSc2nnc(-c3cccc(OC)c3)o2)CC1 | 0.89 | -0.25
CN1CCN(Cc2c(O)ccc3c(=O)c(-c4ccccc4Cl)c(C(F)(F)F)oc23)CC1 | 1 | 1.3
NC(=O)c1oc2ccccc2c1NC(=O)c1cc(-c2cccs2)nc2ccccc12 | 1 | 0.62
COc1cccc(C(=O)Nc2nc3c(s2)CCc2ccc(OC)cc2-3)c1 | 1.2 | 2.6

Six compounds already listed, arranged by the number in CBX7 AlphaScr z-score, descending.
compound | CBX7 AlphaScr z-score
CCOc1ccc(NC(=O)CSc2nnc(Cc3cc(=O)[nH]c(=O)[nH]3)n2-c2ccc(F)cc2)cc1 | 1.8
CCCSCCCNC(=O)CN1C(=O)COc2ccc(S(=O)(=O)N3CCC(C)CC3)cc21 | 1
CCCCCC(=O)Nc1ncc2c(n1)CC(C)(C)CC2=O | 0.74
COc1ccc(N2CCN(CCCNC(=O)c3ccc4c(c3)NC(=O)c3ccccc3N4)CC2)cc1 | 0.23
Cc1cc(Nc2cccc(C(=O)O)c2)c2cccc(C)c2n1 | -0.066
CCOC(=O)c1cnc2c(C(F)(F)F)cccc2c1N1CC2(C)CC1CC(C)(C)C2 (configuration not stated) | -1.6

Additional entries
SMILES | CBX7 AlphaScr | CBX7 AlphaScr z-score
C=CCN1C(=O)c2ccccc2Sc2ccc(C(=O)NCCc3ccc(Cl)cc3)cc21 | 0.93 | -0.95
Clc1ccccc1Nc1nc(-c2ccccc2)c2ccccc2n1 | 2.4 | 24
CCOC(=O)N1CCN(c2c(NCc3cccnc3)c(=O)c2=O)CC1 | 1.1 | 2
O=C(Cn1c2c(c(-c3ccccc3Cl)cc1=O)CCC2)NCC1CCCO1 (configuration not stated) | 0.82 | -2
Cc1nc2ccccn2c1-c1csc(Nc2ccc(S(N)(=O)=O)cc2)n1 | 0.99 | -0.016
Cc1ccc(NC(=O)CCc2nnc3ccc(N4CCC(Cc5ccccc5)CC4)nn23)cc1C | 0.84 | -2.8
CCOC(=O)C1CCCN(c2c(NCC3CCCO3)c(=O)c2=O)C1 (configuration not stated) | 0.99 | -0.18
Cc1ccccc1-n1c(=O)cc(N2CCN(Cc3ccccc3)CC2)[nH]c1=O | 1 | 0.28
O=C(NCc1ccccn1)c1cnn(-c2ccccc2)c1-n1cccc1 | 1 | 0.43
O=C(NCCCc1nc2ccccc2n1Cc1c(F)cccc1Cl)c1cccs1 | 1 | 0.67
Cc1sc2ncn(CC(=O)Nc3ccc(Oc4ccccc4)cc3)c(=O)c2c1C | 1.1 | 3.3
COc1cccc(C2C(N3C(=O)c4ccccc4C3=O)C(=O)N2c2ccc(C)c(Cl)c2)c1 (configuration not stated) | 1 | 1
Cc1ccc(-c2ccc(=O)n(CC(=O)NCCCN3CCC(C)CC3)n2)cc1 | 1 | 0.23
COc1ccc(C(=O)Nc2c(C(=O)Nc3ccccc3F)oc3ccccc23)cc1 | 1.2 | 2
Cn1ccnc1SCC(=O)Nc1ccc(F)c(F)c1 | 1 | 1.2
COc1cc(OC)cc(C(=O)Nc2c3c(nn2-c2cc(C)cc(C)c2)CSC3)c1 | 1 | 1.2
Cc1ccc(C(=O)c2oc3ccccc3c2NC(=O)COc2ccc(C(C)C)cc2)cc1 | 1.1 | 0.28
CC(C)CC(=O)Nc1ccc2oc(-c3ccncc3)nc2c1 | 1.1 | 1.8
O=C(Nc1c2c(nn1-c1ccc(Cl)cc1)CS(=O)(=O)C2)c1cccc(C(F)(F)F)c1 | 0.74 | -1.7
COc1ccc(OC)c(NC(=O)c2cnc(Nc3ccccc3OC)c3ccccc23)c1 | 1.3 | 3.2
COc1cc(OC)c(Nc2cc(C)nc3nc(C)nn23)cc1Cl | 1 | 0.055
COc1ccc(-c2noc(CCCOc3ccc(Cl)cc3Cl)n2)cc1 | 2 | 1.2
COc1cccc(Cn2cc(S(=O)(=O)c3ccccc3)c(=O)c3cc(OC)ccc32)c1 | 0.98 | -0.43
CCOc1ccc(-n2c(Cc3cc(=O)[nH]c(=O)[nH]3)nnc2SCC(=O)Nc2nccs2)cc1 | 0.98 | -0.27
COc1ccc(-c2noc(CCC(=O)Nc3ccccc3OC)n2)cc1 | 1.1 | 2.5
COc1ccc(-n2nc(C(=O)N3CCCCC3)c3ccccc3c2=O)cc1 | 1 | 0.23
O=C(NCC1(c2ccccc2)CCCC1)c1ccc(Cl)cc1Cl | 1.1 | 1.6
CCOC(=O)c1cnc2cc(Cl)c(OC)cc2c1NCc1ccccc1OC | 1.1 | 0.075
N#Cc1nc(COc2ccc(F)cc2)oc1NCc1ccc(F)cc1 | 0.9 | -0.63
CCC(=O)N1CCc2cc(S(=O)(=O)NC(CC(C)C)C(=O)NCCc3cccc(C)c3)ccc21 (configuration not stated) | 1 | -0.16
CCOc1ccc(CCN2C(=O)c3ccccc3C2C(=O)NC(C)CC)cc1OCC (configuration not stated) | 1.2 | 2.3
CCOC(=O)C1CCN(C(C(=O)NC2CCCCC2)c2ccccc2)CC1 (configuration not stated) | 1.1 | 3.4
Oc1ccc(Cl)cc1-c1cc(-c2ccccc2)n[nH]1 | 0.96 | -1
O=C(NC1CCCC1)c1cc2c(s1)CSC2 | 0.89 | -1.2
CC(=O)c1c(C)nc2ccc(C)cc2c1-c1ccccc1 | 0.89 | -1.2
COc1ccc(C(=O)NCC2(c3ccc(OC)c(OC)c3)CCCC2)c(OC)c1 | 0.99 | -0.53
CC(C)CC(=O)Nc1cccc(-c2nc3ccccc3o2)c1 | 1.1 | 0.79
O=C(CC(c1ccccc1)c1ccccc1O)N1CCOCC1 (configuration not stated) | 0.91 | -0.2
CCOc1ccccc1CNC(=O)C(C)N1C(=O)COc2ccc(C)cc21 (configuration not stated) | 0.94 | -1
COc1cccc(-n2c(Cc3cc(=O)[nH]c(=O)[nH]3)nnc2SCc2ccc(C)cc2)c1 | 0.91 | -1.4
CC(C)CN(CC(C)C)C(=O)c1c[nH]c2ccc(S(=O)(=O)Nc3ccccc3F)cc2c1=O | 0.97 | -0.58
Cc1ccc(-n2ncnc2-c2ccc(Cl)cc2)cc1Cl | 0.97 | -0.41
O=C1CNC(c2ccccc2)=C2C=C(Br)C=CC2N1 (configuration not stated) | 1&0.97 | 0.85&-0.3
O=C(NCCCN1CCCCCC1)c1ccc2c(c1)NC(=O)c1ccccc1N2 | 0.94 | -0.87
COc1ccccc1OCCCCc1c(C)n[nH]c1C | 0.97 | -1.4
COCCCNC(=O)CSc1nc(-c2ccc(SC)cc2)[nH]c1-c1ccccc1 | 1.1 | 1.2
CCc1ccc(NC(=O)c2cnc3ccccn3c2=O)cc1 | 1.2 | 2.3
Cc1noc(C)c1S(=O)(=O)N(CC(=O)Nc1cccc(Cl)c1)c1ccc(C(C)C)cc1 | 1 | 0.062
Cc1nc2c(C(=O)NCC3CCCO3)cnn2c(C)c1Cc1c(F)cccc1Cl (configuration not stated) | 0.67 | -8.3
CC(C)CN(CCCNC(=O)c1ccc2c(c1)N(Cc1ccccc1)C(=O)CS2)CC(C)C | 0.91 | -1.2

Quoted at random: 3 entries already listed
SMILES | CBX7 AlphaScr | CBX7 AlphaScr z-score
CC(C)CN(CC(C)C)C(=O)c1c[nH]c2ccc(S(=O)(=O)Nc3ccccc3F)cc2c1=O | 0.97 | -0.58
CCc1ccc(NC(=O)c2cnc3ccccn3c2=O)cc1 | 1.2 | 2.3
Cc1ccc(-n2ncnc2-c2ccc(Cl)cc2)cc1Cl | 0.97 | -0.41
